Screens deposited in PubChem by National Center for Advancing Translational Sciences (NCATS).
AmpC nodet inh: AmpC beta-lactamase inhibition, detergent-free assay; P00811; AmpC nitrocefin hydrolysis, absorbance 480 nm, no detergent; potencies from a single point are estimates; Potency, µM (highest dose often 28.7 µM), for the others: at the highest dose activity change, negative = inhibition; actives 1.8% (n = 71,000); active = falling curve, for most hits resting on a single point; inconclusive = weak or doubtful change; inactive = flat or rising curve; note: % of control where 0% means no effect; about half of the hits show no inhibition at the top dose; a quarter of the inactives give rising signals
Target sequence (P00811 whole entry, looked up): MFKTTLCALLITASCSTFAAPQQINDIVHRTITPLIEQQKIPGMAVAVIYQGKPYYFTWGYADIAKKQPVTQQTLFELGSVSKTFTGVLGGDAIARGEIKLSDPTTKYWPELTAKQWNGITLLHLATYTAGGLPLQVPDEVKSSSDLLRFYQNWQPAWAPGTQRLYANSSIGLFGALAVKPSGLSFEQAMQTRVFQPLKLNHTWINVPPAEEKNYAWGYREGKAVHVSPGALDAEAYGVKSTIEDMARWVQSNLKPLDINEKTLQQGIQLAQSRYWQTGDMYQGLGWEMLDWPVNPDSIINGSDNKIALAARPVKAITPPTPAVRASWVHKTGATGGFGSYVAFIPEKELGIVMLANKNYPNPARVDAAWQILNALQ
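Enzyme, pH 7.0 phosphate. Compound titrations were pre-incubated with AmpC for 15 min at room temperature before nitrocefin (stock 800 uM) addition; product formation was recorded at 480 nm every 20 s for 4 min.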
Numbers without * were called inactive; ? = inconclusive; [ ] = remark or other dose. Potency is the fitted concentration of half-maximal effect.

| compound | AmpC nodet inh |
| --- | --- |
| O=C(CSc1nc(-c2ccco2)cc(C(F)(F)F)n1)N1CCCc2ccccc21 | 46% |
| O=C(CCN1C(=O)c2ccccc2C1=O)N1CCN(c2ccccc2)CC1 | 38% |
| O=C(NCc1cccnc1)C1CC(=O)N(C2CCCCC2)C1 (centres undefined) | -12% |
| COc1ccc(CNc2ncncc2-c2ccc(N(C)C)cc2)c(OC)c1 | 64% |
| CCC(C)NS(=O)(=O)c1ccc(S(=O)(=O)Nc2cc3c(cc2C(C)=O)OCO3)cc1 (centres undefined) | 15% |
| CCOCCCNC(=O)C(NC(=O)C1CCC(=O)N1)c1ccc(C)cc1 (centres undefined) | -2% |
| COc1ccc(C2=CC(c3sccc3C)n3nnnc3N2)cc1 (centres undefined) | 1% |
| O=C1C2CC=CCC2C(=O)N1SC(Cl)(Cl)Cl (centres undefined) | ? |
| C[C@]1(O)CC[C@H]2[C@@H]3CCC4=CC(=O)CC[C@]4(C)[C@@]3(F)[C@@H](O)C[C@@]21C | 11% |
| Cc1c(OCc2nn[nH]n2)ccc2c(-c3ccccc3)cc(=O)oc12 | -18% |
| COC(=O)Nc1ccc2[nH]cc(CCNC(C)=O)c2c1 | 23% |
| CC(=O)N1CC=CC1(C)C(=O)NCC1CC1 (centres undefined) | -10% |
| Cc1cccc(N=c2oc3cc(O)ccc3cc2C(N)=O)c1 | 28% |
| CNC(=O)C1(C)C=CCN1C(=O)c1ccccc1 (centres undefined) | 6% |
| Nc1nc(-c2ccco2)nn1C(=O)c1cccnc1 | 12% |
| CC12C(=O)N(c3ccccc3C(=O)O)C(=O)C1C1C=CC2C1 (centres undefined) | -4% |
| CCOC(=O)C(C)Oc1ccccc1C1NC(=O)NC(C)=C1C(=O)Nc1ccc(C)c(C)c1 (centres undefined) | 78% |
| Cc1cc(-n2c(=O)c(C#N)cc3c(=O)n4ccccc4nc32)no1 | -14% |
| O=C(Nc1nccs1)c1ccc2nccnc2c1 | -19% |
| O=C(c1ccc2c(=O)n(Cc3ccco3)c(=S)[nH]c2c1)N1CCN(c2ccccc2)CC1 | -11% |
| CCOc1ccccc1C(=O)Nc1cc(Cl)ccc1O | ? |
| COC(=O)/C=C1\NCCSC1=O | 37% |
| O=C(Nc1nc2c(s1)CCCC2)Oc1ccccc1 | -16% |
| Cc1cccc(OCc2nnc(SCn3nnc4ccccc4c3=O)o2)c1 | 19% |

Ordered by molar mass (descending): 3 of the compounds above.
| compound | AmpC nodet inh |
| --- | --- |
| O=C(c1ccc2c(=O)n(Cc3ccco3)c(=S)[nH]c2c1)N1CCN(c2ccccc2)CC1 | -11% |
| CNC(=O)C1(C)C=CCN1C(=O)c1ccccc1 (centres undefined) | 6% |
| COC(=O)/C=C1\NCCSC1=O | 37% |

Later entries:
| compound | AmpC nodet inh |
| --- | --- |
| Cn1ccnc1SCc1cn2cc(Br)ccc2n1 | -10% |
| CC1CCCC(C)N1C(=O)COC(=O)c1ccc2c(c1)OCO2 (centres undefined) | 11% |
| COc1ccc(N2C(=O)c3ccccc3NC23CCCCC3)cc1 | -7% |
| N#Cc1c(N)nc2c(c1-c1ccncc1)CCCCC2 | 9% |
| CC1Oc2ccccc2N(CC(=O)NCc2cccs2)C1=O (centres undefined) | 21% |
| CCOc1ncccc1C(=O)OCC(=O)c1c(N)n(C)c(=O)n(C)c1=O | 14% |
| Cc1cc(C(=O)CSc2nc(N)cc(N)n2)c(C)n1CCc1ccc(F)cc1 | -13% |
| CN(C)c1ccc(C2N(C(=O)N3CCOCC3)CCN2S(=O)(=O)c2ccccc2)cc1 (centres undefined) | 102% |
| Cc1ccc(Cl)cc1 | -1% |
| CNCCCC12CCC(c3ccccc31)c1ccccc12 | 50% |
| CC(OC(=O)C1CCCO1)C(=O)NC1CCCC1 (centres undefined) | -14% |
| Cc1ccc2c(C)c(C(=O)Nc3c(C)n(C)n(-c4ccccc4)c3=O)oc2c1 | 4% |
| CCOC(=O)C1=C(C)NC(=O)NC1c1ccc(OCC(=O)N2CCCCC2)cc1 (centres undefined) | 8% |
| O=C(C1CCC(N2C(=O)C3CC=CCC3C2=O)CC1)N1CCCCC1 (centres undefined) | 60% |
| COCCCn1c(=S)[nH]c2ncccc2c1=O | 4% |
| Cc1cccc2cc(COC(=O)C3CCCO3)c(=O)[nH]c12 (centres undefined) | 4% |
| COC(=O)c1cc2c(ccn2-c2ccc(F)cc2)n1CC(=O)N1CCN(C(=O)c2ccco2)CC1 | 166% |
| O=C(Cn1cnc2c(nnn2-c2ccc(F)cc2)c1=O)NCC1CCCO1 (centres undefined) | 9% |
| Cc1csc(NC(=O)CSc2nnc(-c3ccoc3C)n2CCc2ccccc2)n1 | 56% |
| Cc1ccc(OCCC(=O)OCC(=O)C(C)(C)C)cc1 | 20% |
| C[C@H](C(=O)c1ccccc1)[C@@H](c1ccccc1)N1CCOCC1 | 7%[5.75 µM] |
| O=C(CSc1ncn(-c2ccccc2)n1)Nc1nc2c(s1)CCCC2 | 6% |
| CN(C)c1ccc(/C=C/c2ccncc2)cc1 | 12% |
| CCN(CC)S(=O)(=O)c1cc(C)c(C)cc1Br | 6% |
| COc1ccc(S(=O)(=O)N2CCC(C(=O)NCc3cccc(OC)c3)CC2)cc1 | 37% |
| Cc1onc(-c2ccccc2)c1C(=O)N1CCN(C(=O)c2ccco2)CC1 | -5% |
| COc1ccc(Cl)cc1N(CC(=O)N1CCN(Cc2ccccc2)CC1)S(C)(=O)=O | 123% |
| CC(C)(CNC(=O)C1CCCC1)CNC(=O)C1CCCC1 | 6% |
| Cc1noc(C)c1COC(=O)CCc1ccc(S(=O)(=O)N2CCCCC2)cc1 | 51% |
| C=C1C(=O)O[C@@H]2[C@@H]1CC/C(C)=C\CC[C@@]1(C)O[C@H]21 | -2%[12.8 µM] |
| Cc1cccc(Cn2cnc3c(nnn3Cc3ccc(Cl)cc3)c2=O)c1 | -9% |
| CCOC(=O)CCP(=O)(O)C(O)c1ccc(OC)cc1 (centres undefined) | -6% |
| Cc1cc2c(C(F)(F)F)cc(=O)oc2c2c1NCCC2 | -3% |
| Cc1cc(N2CCC(C(=O)NCC3CC3)CC2)nc(-c2ccccc2)n1 | 68% |
| CC(C)[C@H](NC(=O)C1(c2ccccc2)CCN(C(=O)OC(C)(C)C)CC1)C(=O)O | 31% |
| C=C[C@@](C)(O)CC[C@H]1[C@]2(C)CCCC(C)(C)[C@H]2CC[C@]1(C)O | 126% |

Further structures follow:
SMILES | AmpC nodet inh
Fc1ccc(C2CC(c3ccc(F)cc3)n3ncnc3N2)cc1 (centres undefined) | 36%
Cc1cc(-n2c(C)cc(C(=O)CN3C(=O)NC4(CCCCCC4)C3=O)c2C)no1 | 55%
Cc1sc(NC(=O)CSc2nnc3scc(-c4ccccc4)n23)c(C#N)c1C | 13%
O=c1oc(Cl)c(Cl)c2ccccc12 | -7%
c1ccc2c(CSCc3cccc4ccccc34)cccc2c1 | 2%[5.75 µM]
COc1ccc(-n2c(=O)[nH]cc(C(=O)N3CCCc4ccccc43)c2=O)cc1 | 8%
Cc1ccc(SC(C)C(=O)NCC(C)C)cc1 (centres undefined) | 14%
COc1ccc(OCC(=O)Nc2ccc(S(=O)(=O)N3CCOCC3)cc2)cc1 | 19%
Cc1cccc(CNc2ccnc(-c3ccc(N(C)C)cc3)n2)c1 | 13%
COC(=O)N1CCC2(CC1)CN(c1ccccn1)C2 | -2%
CCCNS(=O)(=O)c1ccc(OCC(=O)NCc2ccc3c(c2)OCO3)cc1 | -6%
Fc1cccc(Cl)c1CSc1ncn[nH]1 | -5%
CCC(=O)N1c2ccccc2-c2nnc(SC)nc2OC1c1ccc(OC)c(OC)c1 (centres undefined) | 32%
CC(=O)OC1=C(C#N)Cn2ccc3cccc1c32 | 96%
CCOC(=O)N1CCN(C(=O)c2ccc(N(C)S(C)(=O)=O)cc2)CC1 | -1%
CCc1nnc2n1N=C(c1ccc(-c3cc(Cl)ccc3Cl)o1)CS2 | -5%
c1ccc2sc(Cc3nnc4n3CCCCC4)nc2c1 | 6%
CN(Cc1cccs1)CC(O)COCc1ccco1 (centres undefined) | -1%
COc1cc(-c2noc(CCCC(=O)NCc3ccco3)n2)cc(OC)c1OC | 26%
CN(CC(=O)O)Cc1oc(CO)cc(=O)c1O | -1%[5.75 µM]
CC(C)(C)NC(=O)CSc1n[nH]c(=O)n1-c1ccccc1 | 20%
COc1ccc2c(c1)sc1nc(-c3ccccc3)cn12 | 46%
CC(=O)c1ccc(OCC(O)CN2CCN(Cc3ccc4c(c3)OCO4)CC2)cc1 (centres undefined) | 4µM*[single pt active]
CC(C)[C@H](NC(=O)Nc1cccc(C(F)(F)F)c1)C(=O)O | -3%
O=S(=O)(c1ccccc1)N1CCC2(CCN(c3ccccc3)CC2)CC1 | 26%
COc1cc2cc(Oc3ccc4ccc(=O)oc4c3)c(=O)oc2cc1O | -6%
Nc1cccc(O)c1 | -12%
Cc1ccc2nc(Nc3nc(C)cc(C(F)(F)F)n3)nc(C)c2c1 | 38%
COc1ccccc1NC(=O)c1ccc(C)s1 | 8%
CC(=O)c1ccc(N2C(=NC(=O)C(C)C)SC3CS(=O)(=O)CC32)cc1 (centres undefined) | -5%
COc1ccc(OC)c(/C=N/c2oc(-c3ccco3)c(-c3ccco3)c2C#N)c1 | ?
Cn1cc(Cl)c(-c2nc3ccccc3[nH]2)n1 | -3%
COc1cccc(-c2ccc(=O)n(CC(=O)Nc3cc4c(cc3NC(C)=O)OCCO4)n2)c1 | 67%
C=CCN(C(=O)Nc1ccc(F)cc1)C1CC(=O)N(c2ccc(OC)cc2)C1=O (centres undefined) | 2%
CCC(=O)N1c2ccccc2-c2nnc(SC)nc2OC1c1ccc(N(C)C)cc1 (centres undefined) | 30%
O=C(Nc1ccc(F)cc1)C1CCN(c2nnnn2-c2ccccc2)CC1 | 23%
CCc1ccc(N2CC(C(=O)Nc3cc(C)ccc3F)CC2=O)cc1 (centres undefined) | 28%
Cc1c(NC(=O)C(C)Sc2nc3ccccc3c(=O)n2CCO)c(=O)n(-c2ccccc2)n1C (centres undefined) | 0%
COc1ccc(C2C(C(=O)Nc3ccc(F)cc3)=C(C)Nc3nc(CCCO)nn32)cc1 (centres undefined) | 63%
CCOC(=O)C(NCc1ccc2c(c1)OCO2)(NC(=O)CC)C(F)(F)F (centres undefined) | 5%

Reprinted from the part before: 6 entries, then new ones.
SMILES | AmpC nodet inh
CCC(=O)N1c2ccccc2-c2nnc(SC)nc2OC1c1ccc(N(C)C)cc1 (centres undefined) | 30%
O=C(Nc1ccc(F)cc1)C1CCN(c2nnnn2-c2ccccc2)CC1 | 23%
CCc1ccc(N2CC(C(=O)Nc3cc(C)ccc3F)CC2=O)cc1 (centres undefined) | 28%
Cc1c(NC(=O)C(C)Sc2nc3ccccc3c(=O)n2CCO)c(=O)n(-c2ccccc2)n1C (centres undefined) | 0%
COc1ccc(C2C(C(=O)Nc3ccc(F)cc3)=C(C)Nc3nc(CCCO)nn32)cc1 (centres undefined) | 63%
CCOC(=O)C(NCc1ccc2c(c1)OCO2)(NC(=O)CC)C(F)(F)F (centres undefined) | 5%
COC(=O)C1CCN(C(=O)CCCOc2ccccc2)CC1 | 25%
CCCCSc1c(C)c2cc3c(cc2[nH]c1=O)OCO3 | 16µM*[single pt active]
Cc1nc2ccccc2c(=O)n1NC(=O)c1ccc(F)cc1Cl | -8%
CC(=O)NC1=NC(=O)/C(=C/N2CCCCC2)S1 | 6%
Cc1nn(Cc2ccc(F)cc2)c(C)c1NC(=O)c1noc2c1CCCCC2 | 72%
Cn1cccc1C(=O)OCC(=O)Nc1cc(C(C)(C)C)nn1-c1ccccc1 | 31%
COC(=O)c1ccc(NC(=O)c2sc3nc(-c4ccccc4)cn3c2C)cc1 | 88%
Cc1cc(C)c(C)c(S(=O)(=O)Nc2ccccc2C(=O)NCCCn2ccnc2)c1C | 96%
Oc1ccc(C=NCC2COc3ccccc3O2)cc1 (centres undefined) | -4%
COc1ccccc1N1CCN(C(c2ccc(Cl)cc2)c2nnnn2C(C)(C)C)CC1 (centres undefined) | 119%
Cn1cccc1Cc1nnc(SCC(=O)Nc2cccc(Cl)c2)n1-c1ccc(F)cc1 | 73%
COc1cc(C2C3C(=O)N(Cc4ccccc4)C(=O)C3ON2c2ccccc2)cc(OC)c1OC (centres undefined) | 71%
COC(=O)c1c(NC(=O)c2ccco2)sc(C)c1C | 16%
O=C(O)c1cc2c([nH]c1=O)CCCC2 | -5%
O=C(CSc1nnc(CN2CCOCC2)n1-c1ccccc1)Nc1ccc(Cl)cc1 | 5%
COc1ccc(-n2c(=O)c(CCc3ccccc3)nc3cnc(N4CCOCC4)nc32)cc1 | 11%
Cc1cccc2cc(CN(Cc3cccs3)C(c3nnnn3C3CCCC3)C(C)C)c(=O)[nH]c12 (centres undefined) | 38%
CC(O)CCc1nc2ccc(C(=O)O)cc2[nH]1 (centres undefined) | 47%
Cc1ccc(S(=O)(=O)N2CCCC(C(=O)O)C2)s1 (centres undefined) | 2%
COc1cc(C2CC(=O)NC(SCC(=O)Nc3ccccc3C)=C2C#N)ccc1O (centres undefined) | -6%
CCN(Cc1cc2cccc(C)c2[nH]c1=O)C(=O)c1ccccc1OC | 22%
O=C(Nc1cccc(NC(=O)c2cccs2)c1)c1ccco1 | -16%
O=c1cc(N2CCN(Cc3ccccc3)CC2)[nH]c(=O)n1-c1cccc(C(F)(F)F)c1 | 75%
CCn1c(SCC(=O)Nc2ccc(NC(=O)c3ccco3)c(OC)c2)nc2ccccc2c1=O | 48%
COCCCN1C(=O)C(O)=C(C(C)=O)C1c1cccc(F)c1 (centres undefined) | -7%
COc1ccc(NC(=O)N(C2CCCCC2)C2CCN(C(C)C)CC2)c(OC)c1 | 13%
CCOC(=O)c1cc2occc2n1CC(=O)Nc1ccc(OC)cc1OC | 49%
C[N+](C)(CCCCCC[N+](C)(C)CCCN1C(=O)c2cccc3cccc(c23)C1=O)CCCN1C(=O)c2cccc3cccc(c23)C1=O | 50%
Fc1ccccc1OCCSc1nc2ccccc2o1 | -4%
COCCn1c(=O)cnc2cnc(OCc3ccccc3)nc21 | 22%

This is a subset; the hit share may differ from the screen's.
